Source: PubChem (Johns Hopkins Ion Channel Center)
KCNQ2 inh = KCNQ2 channel blockers in CHO-K1 cells – cell-based, FluxOR thallium flux, B-score, primary screen (AID 2156). 310,000 tested, 1.1% active. O88943. 20 min; active compounds read low; only compounds with negative scores are shown here; some inactives read as strong as hits. B-score at 10 µM;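 active = fluorescence ratio B-score at most minus 3 library SDs, with starting brightness B-score within 2 library SDs, cut at about -5.5 in these data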
Target sequence (O88943 whole entry, looked up): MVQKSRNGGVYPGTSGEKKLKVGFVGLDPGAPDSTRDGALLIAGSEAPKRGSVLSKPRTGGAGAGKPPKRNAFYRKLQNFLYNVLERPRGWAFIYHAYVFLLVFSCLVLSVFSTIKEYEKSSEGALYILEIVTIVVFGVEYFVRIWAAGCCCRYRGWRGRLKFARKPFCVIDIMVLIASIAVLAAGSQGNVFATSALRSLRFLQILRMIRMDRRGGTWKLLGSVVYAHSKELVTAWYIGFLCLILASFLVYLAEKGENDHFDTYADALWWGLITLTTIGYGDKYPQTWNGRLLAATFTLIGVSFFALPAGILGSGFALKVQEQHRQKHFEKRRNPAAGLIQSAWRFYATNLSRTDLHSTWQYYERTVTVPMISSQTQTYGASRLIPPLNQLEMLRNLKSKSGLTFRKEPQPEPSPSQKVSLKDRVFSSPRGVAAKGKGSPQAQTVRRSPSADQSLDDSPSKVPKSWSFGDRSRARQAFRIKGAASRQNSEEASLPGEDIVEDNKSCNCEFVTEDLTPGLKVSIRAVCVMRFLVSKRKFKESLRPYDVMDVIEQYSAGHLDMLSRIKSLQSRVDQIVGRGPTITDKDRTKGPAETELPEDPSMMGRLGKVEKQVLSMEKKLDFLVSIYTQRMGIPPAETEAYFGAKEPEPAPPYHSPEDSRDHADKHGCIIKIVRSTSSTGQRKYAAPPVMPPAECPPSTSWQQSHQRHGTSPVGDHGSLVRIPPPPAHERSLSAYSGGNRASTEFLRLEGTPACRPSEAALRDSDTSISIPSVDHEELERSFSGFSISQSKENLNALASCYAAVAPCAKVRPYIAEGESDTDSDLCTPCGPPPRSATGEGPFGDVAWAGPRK
KCNQ2 inh baseline = also measured in KCNQ2 inh; calls as there; B-score; measured here: initial fluorescence intensity artifact check;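 brightness before thallium and not channel activity; 0 = typical well and far values either way flag optical interference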
* = called active by the depositor; i = inactive. These rows are one share of the data. The share of hits here may be higher or lower than overall.

KCNQ2 inh | KCNQ2 inh baseline | compound
i | -0.23 | CCOc1ccc(N(CC(=O)Nc2ccccc2)S(C)(=O)=O)cc1
i | -0.84 | CC(C)C1N(C(=O)N(C)C)CCN1S(=O)(=O)c1ccccc1 (stereo unspecified)
i | 1.1 | O=c1c(C/C=C/c2ccccc2)c(O)ccn1Cc1ccc(Cl)cc1Cl
i | 1 | CC(=O)Nc1ccc(S(=O)(=O)N2CCN=C2SCc2ccc([N+](=O)[O-])cc2)cc1
i | -1.1 | O=C(Oc1ccc(C(=S)N2CCOCC2)cc1Br)c1ccccc1F
i | -0.71 | Cc1cccc(NC(=O)C2(C)CC3c4ccccc4C2c2ccccc23)c1 (stereo unspecified)
i | 1.3 | O=[N+]([O-])c1ccc(S(=O)(=O)N2CCN(c3ccc(N4CCOCC4)nn3)CC2)cc1
i | 0.85 | Cc1ccc(S(=O)(=O)N2CCC(C(=O)Nc3nnc(C)s3)CC2)cc1
i | -0.71 | CCC(=O)N/N=C/c1ccc(-c2ccc([N+](=O)[O-])cc2)o1
i | 0.03 | COc1ccc(CCNC(=O)C(=O)NCC2CCCN2S(=O)(=O)c2ccccc2)cc1OC (stereo unspecified)
i | 0.01 | CC(=O)c1ccc(-n2nnnc2SCC(=O)N2CCc3ccccc3C2)cc1
i | 0.42 | O=C(COC(=O)CCCCCN=C1NS(=O)(=O)c2ccccc21)Nc1ccc(Cl)c(Cl)c1
i | 0.81 | CCOc1ccc(CC(C(N)=O)C(N)=O)cc1CN(C)C
i | 0.64 | COc1ccc(C2NC(=O)NC(C)=C2C(=O)OC2CCC(C)CC2)cc1 (stereo unspecified)
i | 0.3 | COc1ccc(C)cc1NC(=O)C(OC(=O)c1cnccn1)c1ccccc1 (stereo unspecified)
i | 0.49 | CCN(CC)S(=O)(=O)c1ccc(OC)c(NC(=O)c2cc([N+](=O)[O-])ccc2Cl)c1
i | 2.2 | Cc1cccc(NS(=O)(=O)c2ccc([N+](=O)[O-])cc2)n1
i | 1.5 | Cc1ccc(NC(=S)/N=C(\N)Nc2nc(C)c3ccccc3n2)cc1C
i | -3.7 | C#Cc1ccc([C@@H]2C=C(C(=O)NCc3ccccc3)O[C@H](OCCCCO)C2)cc1
i | -0.74 | Cc1ccc(-c2noc(CCCC(=O)NC3CCCC3)n2)cc1
i | -0.63 | CCOC(=O)N1CCN(C(=O)CCCn2c(=S)[nH]c3ccc(Br)cc3c2=O)CC1
i | -0.43 | Cc1cnc(C(=O)OCc2ccc(Br)cc2)cn1
i | -1.2 | CCc1ccc(NC(=O)Cn2cnc3c(=O)n(C)c(=O)n(C)c32)cc1
i | -0.37 | Cc1c(C(=O)OCC(=O)N2CC(=O)Nc3ccccc32)oc2ccccc12
i | -3.9 | O=S(=O)(c1ccccc1)N1CCN(C(=S)Nc2ccc(Br)cc2)CC1
i | -0.03 | CN(C)c1ccc(/C=C2/SC(=O)N(CCN=C3NS(=O)(=O)c4ccccc43)C2=O)cc1
i | -0.09 | CCOc1ccc(NC(=O)CN(C)C(=O)CCCOc2ccc(Cl)c(C)c2)cc1OCC
i | 0.95 | CC(C)n1c(SCC(=O)c2ccc3c(c2)OCCO3)nc2c1c(=O)n(C)c(=O)n2C
i | 0.78 | C(=N\Nc1nc2ccccc2[nH]1)/c1cccc2cccnc12
-6.5* | 1.4* | CCc1ccc(-c2nc(CN3CCC(C(=O)NCCN(CC)c4ccccc4)CC3)c(C)o2)cc1
i | 2.7 | Cc1ccc(C(=O)Nc2cccc3ccccc23)o1
i | 3.5 | CS(=O)(=O)c1nc(-c2ccc(Br)cc2)cc(-c2ccccc2)c1C#N
i | 0.03 | CCc1nn(C(CC)C(=O)NCC(C)c2ccccc2)c(=O)c2cc3occc3n12 (stereo unspecified)
i | -1.2 | COc1cccc(CN(C)CC(=O)Nc2sc3c(c2C#N)CCC3)c1
-7.9* | -1.2* | Cc1nc(N2CCN(c3ccccn3)CC2)c2c(C)c(C(=O)Nc3c(C)cc(Br)cc3C)sc2n1
i | 2.3 | O=C(O)c1ccccc1CSc1ncn[nH]1
i | 0.13 | CN(CCc1ccccn1)Cc1ccc(Cl)cc1Cl
i | -1.2 | CCC1CCCCN1C(=O)c1cc2c(=O)n3cccc(C)c3nc2s1 (stereo unspecified)
i | 0.5 | CCCCC(O)(C(NC=O)C(=O)OC)C(F)(F)F (stereo unspecified)
i | 0.29 | CCOC(=O)Cn1c2c(c(=N)c3c1CCC3)CCCC2

Molecules shown so far with an aryl thioether with sulfur outside any ring, in the order listed:
KCNQ2 inh | KCNQ2 inh baseline | compound
i | 0.01 | CC(=O)c1ccc(-n2nnnc2SCC(=O)N2CCc3ccccc3C2)cc1
i | 0.95 | CC(C)n1c(SCC(=O)c2ccc3c(c2)OCCO3)nc2c1c(=O)n(C)c(=O)n2C
i | 2.3 | O=C(O)c1ccccc1CSc1ncn[nH]1

Continuation.
KCNQ2 inh | KCNQ2 inh baseline | compound
i | 0.41 | O=C(/C=C/c1ccccc1)NCCSc1ccc(Cl)cc1
i | -0.25 | COc1ccc(NC(=O)C2CCN(c3cc(C)nc(-c4ccccc4)n3)CC2)cc1
i | 0.47 | Cc1ccc(CNC(=O)C2CCN(c3nn4c(=O)cc(C)nc4s3)CC2)cc1
-6.1* | 2.8* | CC(C)(C)c1ccccc1OCCCCCn1ccnc1
i | -0.39 | COc1ccc(-n2c(Cc3cccn3C)nnc2SCC(=O)N2CCC(C)CC2)cc1
i | 2.7 | COc1ccc(OC)c(NS(=O)(=O)c2ccc3c(c2)CCC(=O)N3)c1
i | 1.4 | CCCCc1ccc(N=N/C(C(=O)Nc2ccc(NC(C)=O)cc2OC)=C(/C)O)cc1
i | 4.1 | O=S(=O)(c1ccc(Cl)cc1)N1CCCC1c1nc(-c2ccc(Cl)cc2)no1 (stereo unspecified)
i | 2.4 | CCCn1c(CN2CCN(C(C)=O)CC2)nc2cc(S(=O)(=O)N(C)C)ccc21
i | -0.69 | Cc1ccc(OCCN2CCN(CC(O)Cn3c4ccccc4c4ccccc43)CC2)cc1 (stereo unspecified)
i | -0.04 | CCc1ccc(-c2cc(C(F)(F)F)n3nc(C(=O)Nc4cnn(Cc5ccccc5C)c4)cc3n2)s1
i | -0.37 | O=C(O)CCCCn1c(SCC(=O)Nc2ccccc2C(F)(F)F)nc2ccsc2c1=O
i | 2.2 | CCOC(=O)c1c(NC(=O)CSc2nncs2)sc(C)c1-c1ccccc1
i | 2 | CC(=O)Nc1ccc(Oc2cc(C#N)c(C#N)cc2N2CCOCC2)cc1
i | -0.67 | CCCN(c1ccc(C(C)C)cc1)S(=O)(=O)c1c(C)noc1C
-6.9* | 1.6* | C=CCn1c(=O)c(C(=O)NCCc2ccccc2)c(O)c2ccccc21
i | 2.1 | CN(C)CCNc1oc(COc2ccc(Cl)cc2Cl)nc1C#N
i | 0.59 | CCOc1ccc(OCC)c(NC(=O)C2C3C=CC(O3)C2C(=O)NCc2ccco2)c1 (stereo unspecified)
i | -0.51 | Cc1ccc(F)c(NC(=O)c2cncn2-c2ccccc2)c1
i | 0.13 | CCCN(CCC)c1nc(N(CCC)CCC)[nH]c(=O)n1

Looked up one by one from the entries so far, 7 records:
KCNQ2 inh | KCNQ2 inh baseline | compound
i | 2.4 | CCCn1c(CN2CCN(C(C)=O)CC2)nc2cc(S(=O)(=O)N(C)C)ccc21
i | 2.7 | COc1ccc(OC)c(NS(=O)(=O)c2ccc3c(c2)CCC(=O)N3)c1
i | 0.47 | Cc1ccc(CNC(=O)C2CCN(c3nn4c(=O)cc(C)nc4s3)CC2)cc1
i | 4.1 | O=S(=O)(c1ccc(Cl)cc1)N1CCCC1c1nc(-c2ccc(Cl)cc2)no1 (stereo unspecified)
i | -0.69 | Cc1ccc(OCCN2CCN(CC(O)Cn3c4ccccc4c4ccccc43)CC2)cc1 (stereo unspecified)
i | -0.37 | O=C(O)CCCCn1c(SCC(=O)Nc2ccccc2C(F)(F)F)nc2ccsc2c1=O
i | -0.04 | CCc1ccc(-c2cc(C(F)(F)F)n3nc(C(=O)Nc4cnn(Cc5ccccc5C)c4)cc3n2)s1

(next part)
KCNQ2 inh | KCNQ2 inh baseline | compound
i | 1.7 | CCN(c1ccccc1)S(=O)(=O)c1cccc(C(=O)NCC(c2cccs2)N(C)C)c1 (stereo unspecified)
i | -1.1 | CCN(CC)S(=O)(=O)c1cccc(-c2n[nH]c(=S)n2C)c1
i | 1.3 | COc1ccc(CNC(=O)C2CCC(=O)N(CC3CCCCC3)C2)cc1 (stereo unspecified)
i | 3.8 | CCCC(C)NC(=O)Cn1c(=O)c2c(ncn2CCC(C)C)n(Cc2ccccc2)c1=O (stereo unspecified)
i | -0.01 | CCOC(=O)c1ccc(NC2c3ncccc3C(=O)N2Cc2ccc(F)cc2)cc1 (stereo unspecified)
i | 2 | CCN(CCCNC(=O)C1CCN(S(=O)(=O)c2cnc[nH]2)CC1)c1ccccc1
i | -0.11 | CCOc1ccc(N(C(=O)c2snc(C(N)=O)c2N)C(C(=O)NCC2CCCO2)c2ccco2)cc1 (stereo unspecified)
i | -0.41 | O=C(CSc1ccc2nnc(CCNC(=O)c3ccc(F)cc3)n2n1)NCC1CCCO1 (stereo unspecified)
i | 0.71 | CCOC(=O)CCC(=O)Nc1ccc(S(=O)(=O)N2CCc3ccccc32)cc1
i | -1.5 | Cc1csc(C(=O)O)c1NC(=O)c1ccc(F)cc1
i | 1.7 | COc1ccc(CN2CCC(n3nccc3NC(=O)C3CCCC3)CC2)c(OC)c1
i | 0.88 | COC(=O)c1cc(=O)nc2scc(C)n12
i | -0.91 | CCOC(=O)C1Cc2cc3c(cc2C1=O)CC(C(=O)OCC)C3=O (stereo unspecified)
i | 0.42 | COc1ccc2oc(N)c(C=O)c(=O)c2c1
i | 0.09 | Cc1ccc(S(=O)(=O)CCC(=O)Nc2sccc2C#N)cc1
i | -0.02 | CCOC(=O)c1c(NC(=O)c2noc(C)c2[N+](=O)[O-])sc(C(C)=O)c1C
i | -0.9 | COc1ccccc1N(C)S(=O)(=O)c1ccc(C(=O)OC(C)C(=O)NCc2ccc3c(c2)OCO3)cc1 (stereo unspecified)
i | 0.04 | CCCCNCc1cc(Br)c(OCC(=O)NCc2ccccc2)c(OC)c1
i | -1.2 | O=C(NCc1ccc2c(c1)OCO2)C(=S)N1CCOCC1
i | -0.71 | OCCNc1nc(N2CCN(Cc3ccccc3)CC2)nc2ccccc12
i | 0.43 | COc1cccc(C(=O)Nc2cc(OC)ccc2NC(=O)c2ccco2)c1
i | -0.82 | CCc1ccc(N2CC34C=CC(O3)C(C(=O)OC(C)C)C4C2=O)cc1 (stereo unspecified)
i | -0.05 | CC(C)Oc1cccc(C(=O)C2CCCN(Cc3cnc(N4CCCC4)s3)C2)c1 (stereo unspecified)
i | 0.93 | CCOC(=O)C[C@H]1c2ccccc2S(=O)(=O)N1c1cccc(OC)c1
i | 0.07 | O=C(CCC(=O)NNC(=O)COc1ccc(Br)cc1Br)NCc1ccccc1
i | 0.17 | Nc1nc(CSC(=S)N2CCOCC2)nc(Nc2ccc(F)cc2)n1
i | -0.82 | O=C(Nc1ccc(Cl)c(Cl)c1)C1C2C=CC3(O2)C1C(=O)N(CCN1CCCCC1)C3C(=O)NC1CCCCC1 (stereo unspecified)
-6.7* | 0.69* | CCOC(=O)N1CCN(CCC(=O)c2ccc(Cl)cc2)CC1
i | 0.34 | CN(C(=O)CN1C(=O)/C(=C/c2ccc(Cl)cc2)SC1=S)C1CCS(=O)(=O)C1 (stereo unspecified)
i | 0.01 | CC1CN=C(N(C(=O)Nc2ccccc2)c2ccc(S(=O)(=O)N3CCOCC3)cc2)S1 (stereo unspecified)
i | -0.47 | O=c1oc2ccccc2n1CCc1ccccc1
i | -1.4 | CCOc1ccc(N2CC(C(=O)Nc3ccccc3F)CC2=O)cc1 (stereo unspecified)
i | 0.55 | COc1ccc(-c2csc(NC(=O)CSc3nnc(Nc4ccccc4C)s3)n2)cc1
i | -0.6 | Cc1ccc(S(=O)(=O)N(C)Cc2nc(-c3ccncc3)no2)cc1
i | -0.23 | CCOC(=O)COc1ccc(Br)cc1/C=C1\SC(N)=NC1=O
i | 0.11 | C=C(C)Cn1c(-c2cccs2)n[nH]c1=S
i | 0.2 | CCOC(=O)c1nn(-c2ccc(OC)cc2)c(=O)c2c(N)scc12
i | -1.5 | Nc1ccc2nc(SCc3ccccc3F)sc2c1
i | 0.44 | CC(C)c1ccc(OCC(=O)Nc2ccc(S(=O)(=O)Nc3ccccn3)cc2)cc1
i | 1.2 | CSC1=NCCN1C(=O)C12CC3CC(CC(C3)C1)C2
i | -0.36 | COc1ccc(Cl)cc1C(=O)NCCCSc1ccccc1
i | 0.09 | O=C(c1ccco1)N1CCN(C(=O)C2CCN(S(=O)(=O)c3cccs3)CC2)CC1
i | -1.3 | COc1ccc(-c2csc3ncnc(N4CCN(S(=O)(=O)c5cccc(F)c5)CC4)c23)cc1
i | -1.5 | O=C(CSc1nc2ccccc2c(=O)n1CCCO)N1CCc2ccccc21
i | 0.88 | S=c1[nH]nc(-c2cccc(Cl)c2)n1/N=C/c1ccc(-c2ccccc2Br)o1
i | 1.6 | O=C(COC(=O)CNS(=O)(=O)c1ccc(F)c(F)c1F)NC1CC1
i | -1.4 | CCOC(=O)N1CCC(NC(=O)CCC(=O)c2ccccc2)CC1
i | -0.06 | O=C(Nc1c[nH]c(=O)[nH]c1=O)c1ccc([N+](=O)[O-])cc1
i | 0.6 | Cn1c(CN2CCCCC2)nc2cc(NC(=O)c3ccc(F)cc3)ccc21
i | 0.15 | COc1ccc(C2/C=C\CN(C(=O)c3ccc(C)cc3)CC(=O)N2Cc2ccc(F)cc2)cc1 (stereo unspecified)
i | -0.52 | Cc1ccc(NC(=O)CSCC(=O)N(C)CC(=O)Nc2cccc3ccccc23)cc1
i | 0.95 | CCn1nc(NS(=O)(=O)c2ccc(NC(C)=O)cc2)c2cc3ccc(C)cc3nc21
i | -0.06 | CCc1c(C(=O)OCc2ccccc2)[nH]c(C)c1C
i | 0.06 | Cc1cccn2c(=O)c3cc(C(=O)NC4CCCC4)c(=N)n(CC4CCCO4)c3nc12 (stereo unspecified)
i | 0.26 | COc1ccc(CC(=O)N2CCN(c3ccccc3OC)CC2)cc1
i | -0.67 | CCN(CC)CCOC(=O)c1ccc(NC(=S)NC(=O)/C=C/c2ccco2)cc1
